KCNQ2 enhance: enhances the rat KCNQ2 potassium channel; actives 0.54% (n = 310,000); O88943; B-score at 10 µM; CHO-K1 KCNQ2, FluxOR thallium flux fluorescence; hits give high values;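 active = fluorescence ratio B-score at least 3 SD of library B-scores, with initial fluorescence B-score within 3 SD, cut at about 5.3 in these data; same plate scores as AID 2156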;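 note: B-score of peak minus minimum over baseline fluorescence ratio after K+ and Tl+ stimulus; positive B-score means potentiation of KCNQ2 with more thallium influx and brighter signal; only the inactives scoring about 0 or higher are listed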
Target sequence (O88943 whole entry, looked up): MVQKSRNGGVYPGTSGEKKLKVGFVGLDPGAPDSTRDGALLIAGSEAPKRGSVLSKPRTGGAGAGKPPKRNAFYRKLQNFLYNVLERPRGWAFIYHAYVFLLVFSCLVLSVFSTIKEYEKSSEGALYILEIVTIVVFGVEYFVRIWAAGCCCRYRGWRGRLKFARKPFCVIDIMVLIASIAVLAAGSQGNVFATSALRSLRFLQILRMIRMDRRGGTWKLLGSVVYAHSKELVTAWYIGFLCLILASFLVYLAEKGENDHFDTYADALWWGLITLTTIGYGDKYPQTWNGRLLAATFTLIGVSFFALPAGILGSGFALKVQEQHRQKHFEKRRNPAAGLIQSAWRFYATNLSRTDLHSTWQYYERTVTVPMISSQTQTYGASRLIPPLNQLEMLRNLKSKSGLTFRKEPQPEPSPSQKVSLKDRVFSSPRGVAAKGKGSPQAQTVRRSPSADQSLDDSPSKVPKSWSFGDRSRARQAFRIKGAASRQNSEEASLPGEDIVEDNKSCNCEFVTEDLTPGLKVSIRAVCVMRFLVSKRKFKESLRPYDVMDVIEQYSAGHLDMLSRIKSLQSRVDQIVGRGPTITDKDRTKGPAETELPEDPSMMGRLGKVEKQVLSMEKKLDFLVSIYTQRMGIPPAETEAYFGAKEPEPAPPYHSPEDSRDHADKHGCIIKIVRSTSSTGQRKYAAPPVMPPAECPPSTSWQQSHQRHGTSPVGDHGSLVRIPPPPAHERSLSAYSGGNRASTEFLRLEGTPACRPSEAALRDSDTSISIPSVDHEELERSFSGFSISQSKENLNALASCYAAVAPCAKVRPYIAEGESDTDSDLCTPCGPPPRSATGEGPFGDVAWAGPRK
KCNQ2 enhance baseline: second read-out of KCNQ2 enhance, no call of its own (marks repeat the call); B-score; compound at 10 µM; measured here: initial fluorescence intensity artifact check;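 brightness before thallium and not channel activity; 0 = typical well and far values either way flag optical interference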
An asterisk follows results filed as active.

SMILES	KCNQ2 enhance	KCNQ2 enhance baseline
COC(=O)c1c(NC(=O)c2ccoc2C)sc(C)c1C	0.55	0.37
O=C1CC(O)(C(F)(F)F)Oc2c1ccc1ccccc21 (centres undefined)	5.74*	-0.14*
CCOc1ccc(Br)cc1S(=O)(=O)Nc1cccc(S(=O)(=O)NC2=NCCC2)c1	3.79	-0.36
Cn1c(NCc2ccccc2O)nc2ccccc21	0.77	-1.8
CCOC(=O)c1cc2cc3ccccc3cc2[nH]1	0.02	-0.55
O=C(CCC1CCCCC1)NCCN1CCOCC1	0.19	0.24
CCCCOC(=O)Nc1ccc(C(=O)OCCC)cc1	1.31	0.87
COc1ccc(C(=O)N2CC3(C)CC2CC(C)(C)C3)cc1 (centres undefined)	0.49	-0.66
CCOC(=O)CN1C(=O)Nc2ccc(Br)cc2C1c1ccccc1 (centres undefined)	0.4	2.25
CCc1ccccc1NS(=O)(=O)c1c(C(=O)N2CCCCCC2)c(C)n(C)c1C	0.3	-1.26
CCC(=O)N1CCc2cc(S(=O)(=O)CCC(=O)NCc3ccccc3OC)ccc21	1.44	0.68
Cn1cc([N+](=O)[O-])c(C(=O)NC2CCCCCC2)n1	0.26	1.71
COc1ccccc1C(=O)NCC(=O)N/N=C/c1cn[nH]c1-c1ccccc1	1.22	0.12
COc1ccc(C(=O)C2CCCN(S(=O)(=O)N(C)C)C2)c(C)c1 (centres undefined)	0.1	-0.55
CC(C1CC1)N(Cc1ccccc1)C(=S)Nc1ccccc1Cl (centres undefined)	1.39	0.21
CCOc1ccc(CN(C)CC(=O)NNC(=O)c2ccc(Cl)cc2)cc1OC	0.68	-0.24
COc1ccccc1/C=C(\NC(=O)c1ccccc1)C(=O)NCc1ccco1	0.73	-0.65
C=C(C)c1cccc(C(C)(C)NC(=O)N2CCN(CC)CC2)c1	0.19	-0.15
Cc1ccc(C(=O)OCC(=O)Nc2sccc2C(N)=O)cc1NC(=O)c1ccco1	1.4	0.37
CC(/C=N/NC(=O)c1cccnc1)=C\c1ccco1	1.96	-0.07
Cc1ccc(OCC(=O)Nc2ccc(CN3CCOCC3)cc2)cc1	0.33	-0.88
CCOC(=O)N1CCN(CC(O)COc2ccc(CC)cc2)CC1 (centres undefined)	1.38	-0.73
COc1ccc(C(C(=O)NC2CCCCC2)N(C(=O)c2csnn2)C2CC2)cc1 (centres undefined)	0.18	0.5
COc1cc(OC)cc(C(=O)N2CCN(C(=O)c3ccc(OC)c(OC)c3)CC2)c1	0.68	1.35
COc1ccc(-c2ccc(C#N)c(SCC(=O)NCc3ccco3)n2)cc1OC	0.72	-1.24

The closing six compounds of the part above are carried over, then new ones follow:
SMILES	KCNQ2 enhance	KCNQ2 enhance baseline
CC(/C=N/NC(=O)c1cccnc1)=C\c1ccco1	1.96	-0.07
Cc1ccc(OCC(=O)Nc2ccc(CN3CCOCC3)cc2)cc1	0.33	-0.88
CCOC(=O)N1CCN(CC(O)COc2ccc(CC)cc2)CC1 (centres undefined)	1.38	-0.73
COc1ccc(C(C(=O)NC2CCCCC2)N(C(=O)c2csnn2)C2CC2)cc1 (centres undefined)	0.18	0.5
COc1cc(OC)cc(C(=O)N2CCN(C(=O)c3ccc(OC)c(OC)c3)CC2)c1	0.68	1.35
COc1ccc(-c2ccc(C#N)c(SCC(=O)NCc3ccco3)n2)cc1OC	0.72	-1.24
CCCC(=O)Nc1ccc(C(=O)NNC(=O)c2ccccc2Br)cc1	0.01	0.37
COc1ccc(NC(=S)Nc2ccc(OCc3ccccc3)cc2)cc1OC	0.2	-2.27
COc1ccc(OC)c(CCNC(=O)C2CCN(c3ncnc4c3nc3n4CCCCC3)CC2)c1	0.01	2.96
Nc1n[nH]c(C2CC2)c1N=Nc1ccc(Cl)cc1	1.3	0.01
N#CC(=C1CCCC1)c1nc(-c2cc3ccccc3oc2=O)cs1	0.25	0.88
Cc1ccc(-c2csc(NC(=O)C[n+]3cc(-c4ccccc4)n4c3CCC4)n2)cc1	0.04	-0.84
O=C(CCc1ccccc1)Nc1ccc(NC(=O)c2ccco2)cc1	0.76	-0.04
CCCCCCOc1ccc(OC(=O)c2cccnc2)cc1	0.03	-0.16
COc1ccc(Cl)cc1NC(=O)COC(=O)CCCN1C(=O)c2ccccc2C1=O	0.34	0
CC(C)NCC(O)c1ccc(NS(C)(=O)=O)cc1 (centres undefined)	2.07	-0.29
COC(=O)C(C)Oc1ccc2c(-c3cccc([N+](=O)[O-])c3)cc(=O)oc2c1 (centres undefined)	1.56	-2.19
Cc1ccc(S(=O)(=O)NCc2ccc(C(=O)N3CCCC3)cc2)cc1	2.17	-0.13
CCN1CCCC1CNC(=O)CCc1nc(-c2ccc(C)cc2)no1 (centres undefined)	0.01	0.66
Cc1ccc(S(=O)(=O)NNC(=O)C(=O)NNS(=O)(=O)c2ccc(C)cc2)cc1	1.24	-0.56
COc1ccc(Nc2nc(N)nc(CCl)n2)cc1	0.33	-0.94
Cc1nc(NC(=O)CSc2nnc(-c3ccccc3)c(-c3ccccc3)n2)c(Cl)cc1Cl	1.79	0.83
Cc1occc1-c1nnc(SCC(=O)NC(C)(C)C)n1CC(C)C	2.62	-0.21
Cc1ccc2oc(C(Cl)(Cl)Cl)cc(=O)c2c1	1.28	-1.83
O=C(/C=C/c1ccccc1)Nc1ccc(N2CCCCC2)cc1	0.28	0.73
Cc1nnc(SCC(=O)NC2CCCCCC2)n1C	0.62	-0.01
CCNC(=S)N(CCc1c(C)[nH]c2ccc(Cl)cc12)Cc1cccnc1	1.64	1.21
O=C(COC(=O)C1CCN(c2ccc(C(F)(F)F)cn2)CC1)Nc1ccc(Cl)cc1	2.05	-1.02
COc1ccc(C(CNC(=O)CNC(=O)c2ccccc2Cl)N2CCCC2)cc1 (centres undefined)	0.45	0.11
CCCCNC(=O)OC(C)CNC(=O)OC (centres undefined)	0.9	-2.19
CCCCN(C(=O)c1cc(S(=O)(=O)N2CCCCCC2)ccc1OC)c1c(N)n(CCC)c(=O)[nH]c1=O	0.27	-0.25

Other structures follow:
SMILES	KCNQ2 enhance	KCNQ2 enhance baseline
Cc1cc(=O)oc2cc(OC(C)C)ccc12	1.33	0.86
COc1ccc2c(C(=O)CN3CCN(CCO)CC3)c[nH]c2c1	0.65	0.93
Cc1nnc(SCC(=O)NC(C)(C)C)n1CCc1ccccc1	0.27	-0.79
C=CCC(C#N)(c1ccc(OC)c(OC)c1)c1cnccn1 (centres undefined)	0.47	0.4
Cc1cccc(C(C)C)c1NC(=O)CN1C(=O)NC(Cc2ccccc2)C1=O (centres undefined)	0.09	0.19
CCOC(=O)C1=C(C)N(CCCCCC(=O)O)C(=O)NC1c1cccc([N+](=O)[O-])c1 (centres undefined)	1.2	-0.3
O=C(C1=C(O)C(=O)N(CC2CCCO2)C1c1ccccc1Cl)c1ccco1 (centres undefined)	0.09	1.53
C[N+]1(C)[C@@H]2CC(OC(=O)[C@H](CO)c3ccccc3)C[C@H]1[C@@H]1O[C@@H]12 (some centres undefined)	0.01	0.97
COc1cc(F)c(C(=O)NC(C)(C)CO)cc1OC	0.25	0.02
Cc1ccccc1NC(=O)c1cc2ccccn2n1	2.33	-0.45
O=C(NCc1ccc(Cl)cc1)C1CCN(C(=O)c2ccco2)CC1	0.09	-0.51
COc1ccccc1Cn1c(=S)[nH]c2cc(C(=O)N3CCN(c4ccccc4OC)CC3)ccc2c1=O	0.32	0.84
CN(C)/C=C(\C(=O)c1cccc(Cl)c1)c1nnnn1-c1ccccc1	0.91	-2.84
O=C(CN1C(=O)COc2ccc(S(=O)(=O)N3CCCC3)cc21)NC1CCCCCCC1	10.8*	-0.79*
O=C(CSc1nnc(-c2ccc(F)cc2)o1)NC1CCCCC1	0.02	2.12
Nc1c(C(=O)O)sc2nc3c(cc12)CCCC3	1.25	-0.37
Clc1cccc(Nc2ncnc3ccc(Br)cc23)c1	0.46	1.24
COc1cc2c(cc1N/C=C(\C#N)c1nc(-c3ccccc3)cs1)oc1ccccc12	0.04	0.86
O=C(CC1CCCCC1)NCCOc1ccccc1	0.26	0.04
CNC(=O)C1CC(=O)N(c2ccc(OCC(=O)N3CCCC3)cc2)C1 (centres undefined)	0.03	0.07
O=C(CCC(=O)c1ccc(Cl)cc1)NCc1ccccc1	1.18	-0.38
CCN(CC)c1ccc(NC(=S)NC(=O)Cc2ccccc2)cc1	0.72	0.27
COc1ccc(NC(=O)CN2C(=O)COc3ccccc32)cc1OC	0.6	0.02
COc1ccc(-c2nn3c(-c4ccccc4)nnc3s2)cc1	0.01	-0.06
O=C(NCCc1ccccc1)C(=O)c1c(-c2ccccc2)[nH]c2ccccc12	0.13	-0.01

(cont.)
SMILES	KCNQ2 enhance	KCNQ2 enhance baseline
O=C(O)c1ccc(CSc2nnc(COc3ccccc3)o2)cc1	1.46	-1.79
COc1cc(OC)c2ccc(=O)oc2c1C(CC(=O)N1CCOCC1)c1ccc2c(c1)OCO2 (centres undefined)	0.18	-0.96
COc1ccc(-n2c(SCC(=O)Nc3ccccc3C)nc(O)c(Cc3ccccc3)c2=O)cc1	0.29	0
S=C(NC1CCCCC1)N1CCN(C2CCCCC2)CC1	0.23	1.12
Cc1ccc(S(=O)(=O)NCC2CCC(C(=O)NCc3cccnc3)CC2)cc1 (centres undefined)	0.07	-0.93
Nc1c(-c2ccc(Cl)cc2)cnn1-c1ccccc1	0.01	0.38
N#Cc1c(N)nc2c(c1-c1ccc(F)cc1)CCC2	0.72	0.4
Cc1nn(-c2ccccc2)c(Cl)c1/C=N/NC(=O)c1cccnc1	0.4	-0.42
CCOC(=O)c1c(C)cc(=O)oc1C	0.12	-1.61
COC(=O)c1ccc([N+](=O)[O-])cc1N1C(=O)C2C3CCC(C3)C2C1=O (centres undefined)	1.67	1.02
O=C(Nc1ccc(F)cc1)Nn1cnnc1	1.55	-2.64
CCN(CC)C(=O)c1ccc2c(c1)nnn2C	0.01	-0.95
Cc1c(CN2CCN(c3cccc(C(F)(F)F)c3)CC2)c(=O)n(-c2ccccc2)n1C	1.09	-0.18
Cc1nn(-c2cccc(Cl)c2)c2c1C(c1cccnc1)C(C#N)=C(N)O2 (centres undefined)	0.25	1.52
Cc1cc2nccc(-c3ccc(OCCCF)cc3)n2n1	1.39	0.01
CC(C)C(=O)Nc1c2c(nn1-c1ccc(F)cc1)CSC2	0.18	-0.26
Cc1cccc(OCC(=O)NNC(=O)c2cc3ccccc3oc2=O)c1	1.6	-1.22
COc1ccc(C(C)NC(=O)CCc2ccccc2)cc1 (centres undefined)	1.5	-0.88
COC(=O)c1cc(C(=O)CSc2nc(C)cc(C)n2)ccc1O	1.43	0.33
O=C(NCCNCc1cccs1)c1ccccc1F	0.38	-0.82
CN(C)/C=C1/OC(=O)C(C#N)=C1c1ccc(Cl)cc1	0.09	-2.15
N#C/C(=C\c1c(N2CCCCC2)nc2ccccn2c1=O)C(=O)NC1CCS(=O)(=O)C1 (centres undefined)	1.26	1.41
Cc1ccc(-n2ncc3c(N4CCC(C(N)=O)CC4)ncnc32)c(C)c1	0.19	0.74
O=C(Nc1ccc(Cl)cc1)c1ccncc1	0.11	0.55
COC(=O)CNS(=O)(=O)c1ccc(C)cc1	1.09	0.04

Six successive records already listed, for reference:
SMILES	KCNQ2 enhance	KCNQ2 enhance baseline
O=C(O)c1ccc(CSc2nnc(COc3ccccc3)o2)cc1	1.46	-1.79
COc1cc(OC)c2ccc(=O)oc2c1C(CC(=O)N1CCOCC1)c1ccc2c(c1)OCO2 (centres undefined)	0.18	-0.96
COc1ccc(-n2c(SCC(=O)Nc3ccccc3C)nc(O)c(Cc3ccccc3)c2=O)cc1	0.29	0
S=C(NC1CCCCC1)N1CCN(C2CCCCC2)CC1	0.23	1.12
Cc1ccc(S(=O)(=O)NCC2CCC(C(=O)NCc3cccnc3)CC2)cc1 (centres undefined)	0.07	-0.93
Nc1c(-c2ccc(Cl)cc2)cnn1-c1ccccc1	0.01	0.38

Going on with the list:
SMILES	KCNQ2 enhance	KCNQ2 enhance baseline
Cc1ccc2sc(N(CCCN(C)C)C(=O)c3ccc(S(=O)(=O)N(C)C)cc3)nc2c1C	1.08	0.04
CC(=O)c1ccc(OCCn2c(SCC(=O)O)nc3ccccc32)cc1	0.09	0.76
CSCC[C@H](NC(=O)C(C)(C)Oc1ccc(Cl)cc1)c1nc2ccccc2[nH]1	0.02	1.04
Cc1cc2c(c(=O)o1)C(C1C=CCCC1)C(C#N)=C(N)O2 (centres undefined)	0.79	2.25
C=CCOc1ccc(C(=O)Nc2ncn[nH]2)cc1	1.63	0.79
CCOC(=O)c1c(C)c(C(=O)NCc2ccco2)c(C)n1Cc1ccccc1	2.13	0.13
CCc1ccc(C(=O)COC(=O)CNC(=O)Cc2ccccc2)cc1	0.73	0.06
COc1cc(CN2CCCCCC2)cc(OC)c1OC	0.5	-1.41
O=C(O)CCCN=CC1=C(O)CNC1=O	0.16	-0.08
Cc1cccc(S(=O)(=O)Nc2nc3ccccc3nc2Nc2cccc(C(=O)O)c2)c1	0.75	-0.01
Nc1nc(N)nc(-c2ccccc2O)n1	0.79	1.13
Cc1nn(Cc2ccccc2)c(C)c1C(=O)NCCN1C(=O)S/C(=C\c2ccc(F)cc2)C1=O	0.82	-0.21
COc1cc(=O)[nH]c(SC(C)C(=O)Nc2ccc3ccccc3c2)n1 (centres undefined)	0.55	2.03
CC(C)Nc1nc2n(c(=O)n1)CCN2C(C)C	0.21	-0.53
CCOC(=O)CCNC(=O)N1CCCC(C(=O)c2cc(C)c(OC)c(C)c2)C1 (centres undefined)	1.48	0.65
COc1ccc(C(CNC(=O)C2CC2)N(C)C)cc1 (centres undefined)	0.01	1.65
COc1cc2c(cc1OC)C(C)N(C(C)=O)CC2 (centres undefined)	0.03	0.02
COc1ccc(Cl)cc1N1C(=O)CN(Cc2cc(OC)c(OC)c(OC)c2)C1=S	2.44	1.13
CC(C)Oc1ccc(OCCCN2CCCCCC2)cc1	0.93	-1.39

Screening data deposited in PubChem BioAssay by Johns Hopkins Ion Channel Center.

This is a subset, so the mix of outcomes need not match the whole.
